# E coli growth: E. coli growth inhibition, primary screen, OD600 | Escherichia coli growth, 23 h; active compounds read low | OD600 absorbance (test concentration not listed) | actives 0.21% (n = 330,000) | AID 1053175, 2014;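 active = OD600 absorbance below the run mean of sample wells minus 3.6 SD, in any replicate, cut at about 0.56 in these data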;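 note: stock transfer was 300 nL into about 60 µL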
# Numbers without * were called inactive; & = joins results of further samples. These rows are one share of the data. The share of hits here may be higher or lower than overall.
SMILES,E coli growth
CC(CCC(=O)O)C1CCC2C3C(O)CC4CC(O)CC[C@]4(C)C3CC(O)[C@]12C (stereo partly drawn),0.679&0.653
COc1cc(C=CC(=O)N2C(=O)c3cccc(N)c3C2=O)cc(OC)c1OC,0.738
CC1CN(C(C)CO)C(=O)c2cc(NC(=O)Cc3ccccc3)ccc2OC1CN(C)S(=O)(=O)c1ccccc1 (stereo not drawn),0.617
CCOC(=O)CN1C(=O)NC(c2cccs2)C(C(C)=O)=C1C (stereo not drawn),0.666
O=C(Nc1ccccc1)C1=CC(c2coc3ccccc3c2=O)CC(OCc2ccc(CO)cc2)O1 (stereo not drawn),0.719&0.744
COP1(=O)C=CC(N(Cc2ccccc2)S(=O)(=O)c2ccccc2[N+](=O)[O-])C(C)O1 (stereo not drawn),0.7
CC(C)C1CCC(C(=O)NC(Cc2ccccc2)C(=O)O)CC1 (stereo not drawn),0.695
O=C1C=C(c2ccc(OC(F)(F)F)cc2)CC(c2ccc(Cl)cc2)C1 (stereo not drawn),0.728
COc1ccc(Br)cc1C1C2C=CCC[C@@]2(C)C(=O)N1Cc1ccccc1 (stereo partly drawn),0.684
CC(C)CC(CN1C(N)=NCC1C)NC(=O)CC12CC3CC(CC(C3)C1)C2 (stereo not drawn),0.67
CCCC1CC(C(=O)NC(C(C)O)C2OC(SC)C(O)C(O)C2O)N(C)C1 (stereo not drawn),0.649
Cc1c(O)c(C)c2c(c1O)C(=O)CC(c1ccccc1)O2 (stereo not drawn),0.704
COC(=O)C1=C(C(=O)OC)C2N(Cc3ccccc3)c3ccccc3[C@@]23CC(C(=O)OC)N(C(=O)COCc2ccccc2)C3=N1 (stereo partly drawn),0.714
O=C1NC(Cc2ccccc2)C(=O)N2C1C[C@]1([C@]34CC5C(=O)NC(Cc6ccccc6)C(=O)N5C3N(S(=O)(=O)c3ccccc3)c3ccccc34)c3ccccc3N(S(=O)(=O)c3ccccc3)C21 (stereo partly drawn),0.729
CC1CC=CC2C1C(=O)N(Cc1ccccc1)C2c1ccc(Br)cc1F (stereo not drawn),0.706
C[C@]12CCC(=O)C=C1CCC1C2C(O)C[C@@]2(C)C1CC[C@]2(O)C(=O)CO (stereo partly drawn),0.707&0.711
COc1ccc(C2C=C3CN(C(=O)OC(C)(C)C)S(=O)(=O)C3CC2OC(=O)c2ccc(C(F)(F)F)cc2)cc1 (stereo not drawn),0.666
CCCCCC=CC1=CC(=O)CC(c2ccc(OC)c(OC)c2)C1 (stereo not drawn),0.673
C#CCOCCOCCOCCNc1nc(N2CCN(C(=O)Cn3cc(CCCN=C(N)N)nn3)CC2)nc(N2CCN(C(=O)C(C)n3cc(CCCN=C(N)N)nn3)CC2)n1 (stereo not drawn),0.672
O=C(NC(Cc1ccc(O)cc1)C(=O)O)c1cccnc1 (stereo not drawn),0.696
CC1C(=O)OC2CC34C5CC(C(C)(C)C)[C@]36C(OC(=O)C6O)O[C@@]4(C(=O)O5)[C@]21O (stereo partly drawn),0.636
CC(=O)CC(O)CC(=O)C1OC(=O)CCCCCCCc2ccccc21 (stereo not drawn),0.646&0.693
NC(=NOC(=O)C=Cc1ccccc1)c1ccccn1,0.684
COc1ccccc1CN1CC2CC(c3ccc4nsnc4c3)N3CCC[C@@]23C1=O (stereo partly drawn),0.719
COc1ccc(SCC(C)CN2CCC(C)CCC2=O)cc1 (stereo not drawn),0.645
CCOC1OC(C(=O)N2CCN(Cc3ccc4c(c3)OCO4)CC2)=CC(C(C)(C)C)C1CCCO (stereo not drawn),0.642
C#CCOCCOCCOCCNc1nc(N2CCN(C(=O)C(CCCCN)n3cc(C(N)CC(C)C)nn3)CC2)nc(N2CCN(C(=O)C(CCC(=O)O)n3cc(C(N)C(C)CC)nn3)CC2)n1 (stereo not drawn),0.668
NC(=O)C1CCCNc2c(F)cc([N+](=O)[O-])cc2C(=O)NC(CO)C(=O)NCC(=O)N1 (stereo not drawn),0.663
CC1CCC(=O)N(CCC(Sc2ccccc2)c2ccccc2)CC1 (stereo not drawn),0.679
COC(=O)NC1CC2C3CCC4CC(OC)CC[C@]4(C)C3CC[C@@]12C (stereo partly drawn),0.627
c1ccc2c(CCN3CCNCC3Cc3cccc4ccccc34)cccc2c1 (stereo not drawn),0.687
COc1ccc(C=Cc2ccccc2)cc1C1C2C=CCC(C)C2C(=O)N1Cc1ccccc1 (stereo not drawn),0.696
CS(=O)(=O)c1ccc(C(O)C(CO)NC(=O)C(Cl)Cl)cc1 (stereo not drawn),0.376*
CC(C)C1COC(c2cccc(C3=NC(C(C)C)CO3)c2)=N1 (stereo not drawn),0.679
O=C(NCC1CCCO1)c1cccc2c1C(=O)c1ccc(N3CCOCC3)cc1S2(=O)=O (stereo not drawn),0.719
CCC(C)Oc1ccc(C=Cc2[nH]c(=O)[nH]c(=O)c2[N+](=O)[O-])cc1OC (stereo not drawn),0.742

# Reformatted as labelled records: entries from further up.
CCOC1OC(C(=O)N2CCN(Cc3ccc4c(c3)OCO4)CC2)=CC(C(C)(C)C)C1CCCO (stereo not drawn)
  E coli growth = 0.642

O=C(NCC1CCCO1)c1cccc2c1C(=O)c1ccc(N3CCOCC3)cc1S2(=O)=O (stereo not drawn)
  E coli growth = 0.719

# Continuation:
SMILES,E coli growth
C#CCNC(=O)C1=CC(c2csc3ccccc23)CC(OCc2ccc(CO)cc2)O1 (stereo not drawn),0.725&0.661
CCN1C(=O)C2C(c3ccc(C)cc3)N3C(=O)N(c4ccc(OC)cc4)C(=O)[C@@]3(Cc3ccc(Cl)cc3)C2C1=O (stereo partly drawn),0.703
COC(=O)N=Cc1c(NCc2ccccc2)nc2c(C)cccn2c1=O,0.716
C=C1C=C(C)C(C)(O)CC(O)CC(=O)C(O)C(O)C(C)CC(C)OC(=O)C(C)=CCCC=CC(OC)C(O)CC(C)C1 (stereo not drawn),0.679
CC[C@@]12C(=O)N(c3cccc(F)c3)C(=O)N1C(c1ccc(Cl)cc1)C1C(=O)N(C3CCCCC3)C(=O)C12 (stereo partly drawn),0.693
COC(=O)[C@@]12CCCN1C(c1ccc(-c3ccc(F)cc3)c(OC)c1)C1C(=O)N(C)C(=O)C12 (stereo partly drawn),0.681
CN1CCN(C=C2SC(=S)NC2=O)CC1,0.696
CCOC(=O)C1C2COc3ccc(C)cc3C2N2C(=O)C(C)NC(=O)[C@@]12C (stereo partly drawn),0.651
CCOC(=O)CC1c2ccccc2S(=O)(=O)N1c1cccc(OC)c1 (stereo not drawn),0.713
C=C1C(=O)[C@@]23C(O)CC4C(C)(C)CCC(O)[C@@]4(C)C2CCC1C3O (stereo partly drawn),0.686
NC1=NCC(CC2CCCCC2)N1CCc1cc(C(F)(F)F)cc(C(F)(F)F)c1 (stereo not drawn),0.503
O=C(O)c1cc(Cl)ccc1-c1ccc(C=Cc2cc(C(F)(F)F)[nH]c(=O)n2)o1,0.688
CCCCCCSc1ccc(C2N[C@@](Cc3ccccc3)(C(=O)OC)C3C(=O)N(C)C(=O)C23)cc1 (stereo partly drawn),0.738
CN1CCC(=O)N(C(CO)c2ccccc2)CC1 (stereo not drawn),0.697
O=C1C=C(c2cccc(CO)c2)CC(c2ccc(F)cc2)C1 (stereo not drawn),0.665
C#CCNC(=O)C1=CC(c2ccc(Br)cc2)C(CCCO)C(OCC)O1 (stereo not drawn),0.629&0.656
CCC(C)C(C(=O)N1CCN(C(=O)OC(C)(C)C)CC1)n1cc(-c2cn(C(C)C(=O)N3CCN(C(=O)OC(C)(C)C)CC3)nn2)nn1 (stereo not drawn),0.682
COc1ccc(CN2C(CC(=O)O)c3ccccc3S2(=O)=O)cc1 (stereo not drawn),0.676
O=C(O)C1=CC(c2ccccc2)CC(OCCCCO)O1 (stereo not drawn),0.673&0.712
Cc1ccc(N2C(=O)N3C4c5ccccc5OCC4C(c4ccccc4)[C@@]3(C)C2=O)cc1 (stereo partly drawn),0.711&0.691
Cc1ccc2c(c1)C1C(CO2)C(c2ccccc2)[C@]2(C)C(=O)N(Cc3ccc(Cl)cc3)CC(=O)N12 (stereo partly drawn),0.717
CC(CSc1ccc(Br)cc1)CN1CCC(C(C)(C)C)CCC1=O (stereo not drawn),0.686
CC1CN(C(C)CO)C(=O)c2cc(NC(=O)c3ccncc3)ccc2OC1CN(C)S(C)(=O)=O (stereo not drawn),0.659
CCN1C(=O)C2C(c3ccc(-c4ccc5c(c4)OCO5)c(OC)c3)N[C@@](CC(C)C)(C(=O)OC)C2C1=O (stereo partly drawn),0.727
COc1ccc(C2C=CCN(C(=O)c3ccc(C)cc3)CC(=O)N2Cc2ccc(F)cc2)cc1 (stereo not drawn),0.674
CCN1C(=O)C2C(c3ccc(-c4ccc(F)cc4)c(OC)c3)N[C@@](C)(C(=O)OC)C2C1=O (stereo partly drawn),0.72
Cc1ccc(C2C3C(=O)N(c4ccccc4)C(=O)C3[C@]3(C)C(=O)N(Cc4ccccc4)CC(=O)N23)o1 (stereo partly drawn),0.671
Cc1cc(C=C2SC(N)=NC2=O)c(C)n1-c1ccc(F)cc1,0.749
Cc1noc(C)c1S(=O)(=O)Nc1ccc2c(c1)C(=O)N(C(C)CO)CC(C)C(CN(C)S(=O)(=O)c1ccccc1)O2 (stereo not drawn),0.684
O=C(O)CCCNC(=O)C(=Cc1ccccc1F)NC(=O)c1ccccc1,0.694
CCN1C(=O)C2C(c3ccc(-c4ccc5c(c4)OCO5)c(OC)c3)N[C@@](C)(C(=O)OC)C2C1=O (stereo partly drawn),0.665
CCOC(=O)Oc1c(OC)cc(C(=O)OC2CC3CN4CCc5c([nH]c6cc(OC)ccc56)C4CC3C(C(=O)OC)C2OC)cc1OC (stereo not drawn),0.704
CC1CN(C(C)CO)C(=O)c2cccc(NS(=O)(=O)c3ccc(F)cc3)c2OC1CN(C)C(=O)NC1CCCCC1 (stereo not drawn),0.678
C=CCCC(Cc1ccc(F)cc1)C(=O)OC(CNC(=O)C(CC=C)CC(=O)N(CCO)Cc1ccccc1)c1ccccc1 (stereo not drawn),0.684
CCOC(=O)C1C2COc3ccc(Cl)cc3C2N2C(=O)c3cc(OC)ccc3NC(=O)[C@@]12C (stereo partly drawn),0.705
Cc1ccc(S(=O)(=O)Nc2ccc3c(c2)C(=O)N(C(C)CO)CC(C)C(CN(C)Cc2ccc(-c4ccccc4)cc2)O3)cc1 (stereo not drawn),0.727
Cc1ccc(CN2C(CC3CCCCC3)COCCS2(=O)=O)cc1 (stereo not drawn),0.722
CC1CN(C(C)CO)C(=O)c2cccc(NS(=O)(=O)c3ccc(F)cc3)c2OC1CN(C)S(=O)(=O)c1cn(C)cn1 (stereo not drawn),0.675
CC(C)CC(NC(=O)c1nc[nH]c1C(=O)N1CCC(C)CC1)C(=O)OCc1ccccc1 (stereo not drawn),0.692
COc1ccc(C2CC(=O)C=C(c3ccc(SC)cc3)C2)cc1OC (stereo not drawn),0.607
O=C(C=Cc1ccc(Cl)cc1)c1ccc([N+](=O)[O-])o1,0.639
c1ccc(C2C3CN(CC4CCCCC4)C(c4ccccc4)C34CC2(c2ccccc2)C4)cc1 (stereo not drawn),0.691
CC(=O)C1=C(C)N(Cc2ccccc2)C(=O)NC1c1cccc(F)c1 (stereo not drawn),0.651
COC1=CC(=O)[C@]2(C(Cl)C[C@]34C(OC)=C(OC)C(=O)C[C@]23CCN4C)C1O (stereo partly drawn),0.72
CCC1(CC)C(=O)C2=C3C(CC(C(=O)OC)CC(C(=O)OC)C31)n1c(=O)n(C)c(=O)n1C2C (stereo not drawn),0.71
O=S1(=O)C2CC3CC[C@]2(CN1Cc1cccc(F)c1)O3 (stereo partly drawn),0.637
COC(=O)C(c1ccccc1)N(C)S(=O)(=O)c1cccc(S(=O)(=O)N(C)C(C(=O)OC)c2ccccc2)c1 (stereo not drawn),0.758
CC(=O)n1cc(C2C=C(C(=O)N3CCOCC3)OC(OCCCCO)C2)c2ccccc21 (stereo not drawn),0.668&0.684
CCCCn1nc2cc(C(=O)NC(C)C3CCCCC3)ccc2c1OCC (stereo not drawn),0.673

# Among those listed so far, these contain a Cl atom.
SMILES,E coli growth
O=C1C=C(c2ccc(OC(F)(F)F)cc2)CC(c2ccc(Cl)cc2)C1 (stereo not drawn),0.728
CS(=O)(=O)c1ccc(C(O)C(CO)NC(=O)C(Cl)Cl)cc1 (stereo not drawn),0.376*
CCN1C(=O)C2C(c3ccc(C)cc3)N3C(=O)N(c4ccc(OC)cc4)C(=O)[C@@]3(Cc3ccc(Cl)cc3)C2C1=O (stereo partly drawn),0.703
CC[C@@]12C(=O)N(c3cccc(F)c3)C(=O)N1C(c1ccc(Cl)cc1)C1C(=O)N(C3CCCCC3)C(=O)C12 (stereo partly drawn),0.693
O=C(O)c1cc(Cl)ccc1-c1ccc(C=Cc2cc(C(F)(F)F)[nH]c(=O)n2)o1,0.688
Cc1ccc2c(c1)C1C(CO2)C(c2ccccc2)[C@]2(C)C(=O)N(Cc3ccc(Cl)cc3)CC(=O)N12 (stereo partly drawn),0.717
CCOC(=O)C1C2COc3ccc(Cl)cc3C2N2C(=O)c3cc(OC)ccc3NC(=O)[C@@]12C (stereo partly drawn),0.705
O=C(C=Cc1ccc(Cl)cc1)c1ccc([N+](=O)[O-])o1,0.639
COC1=CC(=O)[C@]2(C(Cl)C[C@]34C(OC)=C(OC)C(=O)C[C@]23CCN4C)C1O (stereo partly drawn),0.72

# From PubChem BioAssay
